Screens as filed in PubChem.
RE007 growth inh = less growth of the S. pombe RE007 Vpr strain | AID 651644 | 360,000 compounds, 0.21% hits | Potency, µM (doses to about 92.2 µM), without a hit: at the top dose activity change, negative = less growth | S. pombe RE007 Vpr strain, BacTiter-Glo ATP luminescence, 24 h; control for the full effect not named in the record; active = well fitted falling curve with a large enough effect; inconclusive = small, poorly fitted or top-dose-only effect; inactive = no such curve, though single readings can be large or run the other way;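 further: on the % scale 0 is the no-effect control and ±100 the full control effect; nearly all actives have a fitted effect of over 50% in size; the assay follows cell death caused by Vpr and the record does not say whether a fall means rescue or toxicity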
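Fission yeast strain RE007, carrying one chromosomally integrated HIV-1 vpr copy, was seeded at OD 0.01 in PMG+AL medium with 23 nL pinned compound. After 24 h at 30 °C and 99% humidity, viability was read by BacTiter-Glo luminescence.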
Cruzain inh Det = cruzain (T. cruzi) inhibition with detergent | P25779 | purified cruzain, Z-FR-AMC fluorescence, 0.01% Triton | Potency, µM, inactives show max response, negative = inhibition, usual class: inhibitors | 200,000 compounds, 0.43% hits | AID 1478;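 further: plate controls were neutral wells for no effect and buffer without enzyme for full effect; nearly all actives have a fitted effect of over 40% in size; top concentration of the series not given in the record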
Target sequence (P25779 123-467 limits assumed): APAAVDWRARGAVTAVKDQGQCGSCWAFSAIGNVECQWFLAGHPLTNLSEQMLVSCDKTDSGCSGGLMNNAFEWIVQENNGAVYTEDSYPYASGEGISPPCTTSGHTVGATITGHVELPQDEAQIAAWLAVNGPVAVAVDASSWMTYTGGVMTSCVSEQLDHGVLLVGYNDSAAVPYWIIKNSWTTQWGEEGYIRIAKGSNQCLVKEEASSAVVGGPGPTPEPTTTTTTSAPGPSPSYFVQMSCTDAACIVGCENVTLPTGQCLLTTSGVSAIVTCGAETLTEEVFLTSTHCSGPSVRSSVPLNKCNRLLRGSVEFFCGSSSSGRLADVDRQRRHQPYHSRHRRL
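Cysteine protease activity tested under reducing, mildly acidic conditions (100 mM sodium acetate pH 5.5, 5 mM DTT) plus 0.01% Triton X-100. Cruzain 1.5 nM; substrate Z-FR-AMC 2 uM; 15 min compound preincubation at room temperature.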
Lassa entry inh = inhibitors of Lassa virus binding or cell entry | Potency, µM (highest dose often 37.9 µM), inactives show top-dose activity change, negative = inhibition, actives largely listed as inhibitors | Lassa virus pseudotype entry inhibition, cell reporter; control for the full effect not named in the record | 300,000 compounds, 1.2% hits; active means well fitted inhibition curve with a large enough effect; inconclusive means small, poorly fitted or top-dose-only effect, or effect the other way; inactive means flat fitted curve, though single readings scatter; tested in HEK293 cells; further: on the % scale 0 is the no-effect control and ±100 the full control effect; nearly all actives have a fitted effect of over 50% in size; luciferase read-out
NS1 inh = influenza NS1 inhibition; S. cerevisiae slowed by influenza A NS1, growth recovery by OD600; 270,000 compounds, 0.4% hits; AID 2326; Potency, µM (titrated, usually from 46.1 µM), inactives show at the top dose activity, positive = more growth; active means well fitted rising curve with a large enough effect; inconclusive means small, poorly fitted or top-dose-only effect; inactive means no such curve, though single readings can be large or run the other way; further: nearly all actives have a fitted effect of over 50% in size
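Growth recovery, yeast-based: influenza A NS1 expressed in S. cerevisiae causes slow growth, and suppressors are detected by OD600. The parent strain without NS1 is used as positive control.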
MARV entry inh = blocks Marburg virus binding to or entry into cells; Marburg virus pseudotyped entry inhibition, cell reporter; control for the full effect not named in the record; about a third of the inactives were read at about 46 µM; Potency, µM (titrated, usually from 37.8 µM), without a hit: top-dose activity change, negative = inhibition, most hits filed as inhibitors; 300,000 compounds, 1.8% hits; active = well fitted inhibition curve with a large enough effect; inconclusive = small, poorly fitted or top-dose-only effect, or effect the other way; inactive = flat fitted curve, though single readings scatter; tested in HEK293 cells; about a fifth of its hits are not listed in these tables; further: on the % scale 0 is the no-effect control and ±100 the full control effect; luciferase read-out
Cruzain inh noDet = inhibitors of Trypanosoma cruzi cruzain without detergent | 200,000 compounds, 2.3% hits | Potency, µM, without a hit: max response, negative = inhibition, usual class: inhibitors | P25779 | purified cruzain, Z-FR-AMC fluorescence, no detergent;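 further: plate controls were enzyme without inhibitor for no effect and buffer without enzyme for full effect; nearly all actives have a fitted effect of over 40% in size; top concentration of the series not given in the record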
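Detergent-free condition (0.00005% Triton X-100) in acetate buffer pH 5.5 with DTT. 1.5 nM enzyme and compound were pre-mixed 15 min, then 2 uM Z-FR-AMC substrate added; reaction progress from fluorescence change between first and third reads (60 s).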
StopGo reporter = lowers the luciferase signal of an FMDV 2A StopGo reporter; human cells with a luciferase reporter of 2A StopGo recoding; control for the full effect not named in the record; Potency, µM (titrated, usually from 57.9 µM), without a hit: top-dose signal change, negative = less light; 410,000 compounds, 1.2% hits; AID 1159524; active = well fitted falling curve with a large enough effect; inconclusive = small, poorly fitted or top-dose-only effect; inactive = no such curve, though single readings can be large or run the other way; tested in HEK293T cells; further: on the % scale 0 is the no-effect control and ±100 the full control effect; nearly all actives have a fitted effect of over 45% in size; luciferase light after 4 h
SARS PLP yeast = blocks SARS-CoV papain-like protease in a yeast assay; Potency, µM (highest dose often 32.9 µM), inactives show top-dose activity, positive = growth rescue; S. cerevisiae expressing SARS-CoV PLpro, growth rescue; control for the full effect not named in the record; 330,000 compounds, 0.19% hits; active means well fitted rising curve with a large enough effect; inconclusive means small, poorly fitted or top-dose-only effect; inactive means no such curve, though single readings can be large or run the other way; further: 0% is about no effect; nearly all actives have a fitted effect of over 55% in size; growth read by luminescence after 48 h
An asterisk follows results filed as active; [ ] = another dose, or the depositor's remark. Unless noted, the call rests on the fitted dose curve; in most records, active means well fitted curve in the direction sought with a large enough effect; inconclusive means small, poorly fitted or top-dose-only effect, or another doubt; inactive means no such curve, though single readings can be large; an effect the other way counts as inactive or inconclusive. Potency means the concentration at half of the fitted maximal effect.

How did O=C(Nc1ccc2c(c1)OCCO2)c1cccs1 do in these assays?
RE007 growth inh: -13.2%; Cruzain inh Det: -2.9%; Lassa entry inh: -20.7%; NS1 inh: -9.6%; MARV entry inh: inconclusive; Cruzain inh noDet: 3.8%; StopGo reporter: 33.7%[activator]; SARS PLP yeast: -75.8%

What do the screens show for `O=C(NNC(=O)[C@@H]1CCCC[C@@H]1C(=O)O)c1cccs1`?
RE007 growth inh: 19.3%; Cruzain inh Det: 0.1%; Lassa entry inh: 18.2%; NS1 inh: 3.4%; MARV entry inh: 19.2%; Cruzain inh noDet: -1.1%; StopGo reporter: 8.9%; SARS PLP yeast: 19.8%

Results for COC(=O)c1c(C)oc2ccc(N(C(=O)Oc3ccccc3)S(=O)(=O)c3ccc(Cl)c([N+](=O)[O-])c3)cc12 ?
RE007 growth inh: -19.2%; Cruzain inh Det: -2.9%; Lassa entry inh: -18.7%; NS1 inh: 24.2%; MARV entry inh: inconclusive; Cruzain inh noDet: 7.94µM*; StopGo reporter: -25.5%; SARS PLP yeast: 17.0%

Results for CN(Cc1ccc(Cl)s1)C(=O)CN1C(=O)N(C)C2(CCCCC2)C1=O ?
RE007 growth inh: -6.9%; Lassa entry inh: -8.3%; MARV entry inh: inconclusive; StopGo reporter: 8.8%; SARS PLP yeast: 3.3%

How did CN1CCN(Cc2cccc(Oc3ccc(Cl)cc3)c2)CC1 do in these assays?
RE007 growth inh: -26.9%; Cruzain inh Det: 1.0%; Lassa entry inh: 2.4%; NS1 inh: -6.6%; MARV entry inh: inconclusive; Cruzain inh noDet: -2.7%; SARS PLP yeast: 4.7%

What do the screens show for `O=C(Nc1ccc(Cl)cc1F)c1cc(S(=O)(=O)NCc2ccc3c(c2)OCO3)ccc1F`?
Cruzain inh Det: 0.9%; Lassa entry inh: 7.5%[46.1 µM]; Cruzain inh noDet: 5.7%; StopGo reporter: -5.6%

How did CCCCN1CN(S(=O)(=O)c2cccs2)c2nc3ccccc3nc21 do in these assays?
Cruzain inh Det: inconclusive; NS1 inh: -13.0%; Cruzain inh noDet: -22.4%; SARS PLP yeast: 3.9%

How did Cc1ccc2c(COC(=O)CNC(=O)c3ccco3)cc(=O)oc2c1C do in these assays?
RE007 growth inh: 5.1%; Lassa entry inh: 25.0%; MARV entry inh: 0.9%; StopGo reporter: -4.1%; SARS PLP yeast: -3.2%

What do the screens show for `COc1ccc(-c2cc(C(=O)Nc3cnn(Cc4ccccc4C)c3)no2)cc1OC`?
RE007 growth inh: -1.2%; Cruzain inh Det: 0.8%; Lassa entry inh: -11.6%; NS1 inh: 0.9%; MARV entry inh: 7.2%; Cruzain inh noDet: 2.7%; StopGo reporter: -24.7%; SARS PLP yeast: 0.7%

How did Cc1cccc(N=Cc2cc3c(cc2[N+](=O)[O-])OCO3)c1 do in these assays?
RE007 growth inh: -13.5%; Cruzain inh Det: -2.6%; Lassa entry inh: -2.5%; NS1 inh: -8.8%; MARV entry inh: -2.9%; Cruzain inh noDet: inconclusive; StopGo reporter: 13.1%; SARS PLP yeast: -3.6%

How did COc1cc(NC(=O)CN2CCCN(Cc3cccc(F)c3)S2(=O)=O)cc(OC)c1 do in these assays?
Cruzain inh Det: -6.3%; Lassa entry inh: -2.8%[46.1 µM]; Cruzain inh noDet: 15.7%; StopGo reporter: -22.2%

Results for Cc1nn(C)c(C)c1CN(C)C(=O)c1nn2c(c1Br)NC(c1cccs1)CC2C(F)(F)F (stereo not drawn) ?
RE007 growth inh: 3.2%; Cruzain inh Det: -2.4%; Lassa entry inh: -2.7%; NS1 inh: 8.6%; MARV entry inh: -1.5%; Cruzain inh noDet: inconclusive; StopGo reporter: -20.7%; SARS PLP yeast: 11.5%

Results for CCn1c(COc2ccccc2)nnc1SCC(=O)Nc1ccc2c(c1)OCCO2 ?
RE007 growth inh: 2.6%; Cruzain inh Det: -4.9%; Lassa entry inh: -4.4%; NS1 inh: -1.8%; MARV entry inh: -5.6%; Cruzain inh noDet: -4.6%; StopGo reporter: 2.4%; SARS PLP yeast: 4.7%

Results for CCCCCC1CC(=O)N(Cc2ccc(Cl)cc2)C(=O)N1 (stereo not drawn) ?
RE007 growth inh: -1.1%; Cruzain inh Det: 3.5%; Lassa entry inh: -23.2%; NS1 inh: 0.6%; MARV entry inh: -28.1%; Cruzain inh noDet: -10.2%; StopGo reporter: -2.1%; SARS PLP yeast: 5.1%

What do the screens show for `CC(C)(C)c1cc(C(C)(C)C)cc(S(=O)(=O)CCc2ccccn2)c1`?
RE007 growth inh: -4.1%; Cruzain inh Det: -6.4%; Lassa entry inh: 0.6%; NS1 inh: -8.9%; MARV entry inh: inconclusive; Cruzain inh noDet: 23.4%; StopGo reporter: 29.5%; SARS PLP yeast: 11.4%[6.58 µM]

Results for COc1ccc(CCN(C(=O)C(F)(F)F)C(C(=O)NC2CCCC2)c2cccs2)cc1OC (stereo not drawn) ?
RE007 growth inh: -0.4%; Cruzain inh Det: -5.5%; Lassa entry inh: -13.8%; NS1 inh: -2.3%; MARV entry inh: -0.3%; Cruzain inh noDet: 28.6%; SARS PLP yeast: -0.6%

What do the screens show for `COc1ccc(N2C(=O)CC(SCCc3nc4ccccc4[nH]3)C2=O)cc1` (stereo not drawn)?
RE007 growth inh: -9.5%; Cruzain inh Det: -0.7%; Lassa entry inh: -26.7%[14.3 µM]; NS1 inh: 6.2%; MARV entry inh: -0.3%; Cruzain inh noDet: 6.3%; StopGo reporter: -19.3%; SARS PLP yeast: -11.8%

How did CCOC(=O)c1[nH]c2ccccc2c1NC(=O)c1cc(Cl)ccc1Cl do in these assays?
Cruzain inh Det: -0.1%; Lassa entry inh: inconclusive; MARV entry inh: inconclusive; Cruzain inh noDet: 0.6%; StopGo reporter: -12.1%

How did Cc1[nH]n(-c2cccc(Cl)c2)c(=O)c1-c1ccc(Cl)cc1 do in these assays?
RE007 growth inh: -26.9%; Cruzain inh Det: -13.4%; Lassa entry inh: 17.9%; NS1 inh: -23.7%; MARV entry inh: 2.0%[46.1 µM]; Cruzain inh noDet: 1.5%; StopGo reporter: -15.2%; SARS PLP yeast: -43.2%

Results for COc1cc(OC)c(NC(=O)NCc2cccn2Cc2ccccc2)cc1Cl ?
Cruzain inh Det: -7.3%; Lassa entry inh: -3.3%[46.1 µM]; Cruzain inh noDet: -27.2%; StopGo reporter: -7.6%

How did Cc1noc(/C=C/N(C)C)c1S(=O)(=O)N1CCN(c2ccc(F)cc2)CC1 do in these assays?
RE007 growth inh: 19.4%; NS1 inh: 23.3%; StopGo reporter: -10.2%; SARS PLP yeast: -5.7%

Results for CCCCC(=Nc1ccc(N)cc1)C1=C(O)C(C(=O)OC)C(C)(C)CC1=O (stereo not drawn) ?
RE007 growth inh: -13.4%; Cruzain inh Det: 1.8%; Lassa entry inh: 8.6%; NS1 inh: -3.3%; MARV entry inh: -13.9%; Cruzain inh noDet: 1.6%; StopGo reporter: 9.9%; SARS PLP yeast: 11.9%

Results for COc1ccccc1NC(=O)N1CCC(c2nc3cc(C)c(C)cc3[nH]2)CC1 ?
RE007 growth inh: -3.6%; Cruzain inh Det: 4.2%; Lassa entry inh: inconclusive; NS1 inh: -11.0%; MARV entry inh: inconclusive; Cruzain inh noDet: 11.1%; StopGo reporter: 15.0%; SARS PLP yeast: -2.6%

What do the screens show for `CN(CC(=O)NCc1ccncc1)S(=O)(=O)c1ccc(Br)cc1`?
RE007 growth inh: 0.7%; Lassa entry inh: inconclusive; NS1 inh: -4.4%; MARV entry inh: 5.0%; StopGo reporter: -25.4%; SARS PLP yeast: 2.1%

Results for COc1ccc(-c2noc(CNC(=O)c3cc(OC)c(OC)c(OC)c3)n2)cc1 ?
Cruzain inh Det: 0.9%; Lassa entry inh: 2.2%[46.1 µM]; MARV entry inh: inconclusive; Cruzain inh noDet: -6.8%; StopGo reporter: -5.4%

How did CC(=O)Nc1ccc(-c2csc(NC(=O)C3CC(=O)N(c4ccc5c(c4)OCCO5)C3)n2)cc1 (stereo not drawn) do in these assays?
RE007 growth inh: -7.8%; NS1 inh: -33.6%; StopGo reporter: inconclusive; SARS PLP yeast: 0.1%

Results for O=C(N/N=C/c1c[nH]c2ccccc12)c1ccn(Cc2ccc(Cl)cc2)n1 ?
RE007 growth inh: 10.8%; Cruzain inh Det: -4.3%; Lassa entry inh: inconclusive; NS1 inh: -4.7%; MARV entry inh: inconclusive; Cruzain inh noDet: 0.0%; StopGo reporter: inconclusive; SARS PLP yeast: 0.6%

Results for CCN1C(=O)/C(=C/c2ccc(C)s2)SC1=Nc1ccc(OC)cc1 ?
RE007 growth inh: 11.6%; Cruzain inh Det: -1.8%; Lassa entry inh: inconclusive; NS1 inh: -2.7%; MARV entry inh: inconclusive; Cruzain inh noDet: -10.4%; StopGo reporter: -23.1%; SARS PLP yeast: -2.6%

How did CS(=O)(=O)N1CCN(c2ccc(NC(=O)Cc3ccccc3)cc2)CC1 do in these assays?
RE007 growth inh: 6.0%; Cruzain inh Det: 4.8%; Lassa entry inh: -1.3%; NS1 inh: 12.7%; MARV entry inh: -18.7%; Cruzain inh noDet: inconclusive; SARS PLP yeast: 18.3%

Results for Cc1ccc(C(NC(=O)c2ccccc2)C(Cl)(Cl)Cl)cc1 (stereo not drawn) ?
RE007 growth inh: 3.4%; Cruzain inh Det: -1.3%; Lassa entry inh: 14.2%; NS1 inh: 13.1%; MARV entry inh: inconclusive; Cruzain inh noDet: -7.6%; StopGo reporter: 0.0%; SARS PLP yeast: 3.3%

Results for CN(Cc1ccno1)Cc1cn(C)nc1-c1ccc(Oc2ccccc2)cc1 ?
RE007 growth inh: -7.7%; Lassa entry inh: 14.4%[46.1 µM]; NS1 inh: -8.4%; MARV entry inh: 0.6%[46.1 µM]; StopGo reporter: inconclusive; SARS PLP yeast: 1.3%

How did CCN(C(=O)Cn1ncc2c(=O)oc3ccc(C)cc3c21)c1cc(OC)ccc1OC do in these assays?
Cruzain inh Det: -3.8%; Lassa entry inh: 6.3%[46.1 µM]; MARV entry inh: 2.2%[46.1 µM]; Cruzain inh noDet: 7.6%; StopGo reporter: -19.0%

Results for [O-][n+]1ccccc1/C=C/c1ccccc1 ?
RE007 growth inh: 1.4%; Lassa entry inh: inconclusive; MARV entry inh: inconclusive; StopGo reporter: 25.1%

What do the screens show for `CC(C)N1C(=O)C2ON(c3ccccc3)C(c3cccs3)C2C1=O` (stereo not drawn)?
RE007 growth inh: 0.7%; Cruzain inh Det: -4.5%; Lassa entry inh: -4.7%; NS1 inh: -1.6%; MARV entry inh: 3.1%; Cruzain inh noDet: -1.3%; StopGo reporter: 4.3%; SARS PLP yeast: -2.3%
